# Screens from PubChem.
# Sa ugtP lethal – kills S. aureus RN4220 lacking UgtP | S. aureus RN4220 ugtP deletion, OD600 growth, 16 h; some inactives read as strong as hits | growth inhibition, % (test concentration not listed) | hit rate 0.54% among 330,000;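 active = z-score under -3 and OD600 up to 0.15 on both plates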;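 also: plate controls were untreated wells for no effect and antibiotic for full effect; wells of about 80 µL received 100 nL stock; the first replicate is given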
# Mtb hypoxia inh – reduces hypoxia-regulated biosensor signal in M. tuberculosis; M. tuberculosis hypoxia-regulated fluorescent reporter, fluorescence; hit rate 0.1% among 300,000; fluorescence inhibition, % (concentration not given with the values);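 active = 35 to 45% if threefold the growth effect, above 45% if 1.5-fold the growth effect; inactive = the rest, general growth blockers included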;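 also: wells of about 50 µL received 100 nL stock; 0% = vehicle wells and 100% = reference inhibitor wells; whole bacteria with a GFP reporter of the hypoxia response; strong numbers were not always called active; many hits fall short of the cut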
# BJeLR lethal – kills HRASV12-expressing BJeLR cells. hit rate 0.17% among 300,000. AID 1554. BJeLR (HRASV12) viability, CellTiter-Glo ATP luminescence, 48 h; reference of the scale not given here. inhibition, % (test concentration not listed);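 active = replicate mean above 50%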;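 also: 50 nL library stock added to about 25 µL; numbers are from one replicate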
# PrP 5UTR inh – inhibition of PrP 5' UTR reporter expression | cell-based PrP 5' UTR mRNA reporter, plate reader | inhibition, % (no concentration beside the values) | hit rate 0.35% among 340,000 | AID 488862;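 active = every replicate at 50% or more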;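 also: 0 = median of the neutral control wells; tested in H4 reporter cells; numbers are from one replicate; inactives centre near -14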
# RN4220 kill – S. aureus RN4220 growth inhibition; OD600, 16 h; hit rate 0.33% among 330,000; inhibition, % (concentration not given with the values);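 active = z-score of -3 or lower and OD600 up to 0.18 on both plates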;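 also: plate controls were untreated cells for no effect and reference antibiotic for full effect; stock transfer was 100 nL into about 80 µL; one replicate is shown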
# Bead autofluor – counter-screen for toxin protease inhibitors: compound fluorescence. compound autofluorescence counterscreen, microsphere flow cytometry; stronger effect = higher value. fluorescence intensity (concentration not given with the values). hit rate 3.1% among 360,000. AID 624483;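 active = at least 3 SD above the mean of all compounds, about 16000 in these data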;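 also: 100 nL of 1 mM stock went into each well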
# Mtb hypoxia inh growth – further read-out of Mtb hypoxia inh, marked with its call; growth inhibition, %; measured here: M. tuberculosis growth (absorbance);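 0% = vehicle and 100% = reference antibiotic; read after six days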
# The depositor's hits bear a star; / = no result given.
# Below each SMILES: Sa ugtP lethal	RN4220 kill	Mtb hypoxia inh growth	PrP 5UTR inh	Bead autofluor	Mtb hypoxia inh	BJeLR lethal
COC(=O)[C@H](CCSC)NC(=O)Nc1ccc(C)cc1
 : 6.9	3.8	8.7	-31.0	10477	10.9	-0.8
Cc1ccc(C=NNC(=O)c2cccnc2)s1
 : 4.3	0.9	4.0	/	/	0.2	/
CC1=C(C(=O)OCC(C)C)C(c2ccsc2)C2=C(CCCC2=O)N1 (stereo not drawn)
 : 4.7	6.4	5.3	-16.4	2142	11.7	7.6
CN(C)CC(C)(C)CNC(=O)c1cc(=O)c2ccccc2o1
 : -1.8	1.5	15.1	-10.0	21817*	4.6	1.7
CCN(C(=O)COC(=O)c1cnc(C)cn1)C1CCCCC1
 : 1.4	4.1	-3.6	-4.4	3468	-5.6	3.7
COc1ccc(-c2cc(=O)c3ccccc3n2C)cc1
 : 4.9	4.3	/	-12.5	4315	/	0.6
CC(C)(C#N)NC(=O)C1CCCN1S(=O)(=O)c1ccc2ccccc2c1 (stereo not drawn)
 : /	/	/	-20.0	3732	/	-6.1
O=C(CNC(=O)c1cccs1)NCC(=O)OCc1ccc(F)cc1
 : -5.1	-0.8	17.2	-15.2	1921	-2.1	-1.0
COc1cc(C(=O)NCC2CCCO2)ccc1OCc1ccc(Cl)cc1 (stereo not drawn)
 : 3.2	-0.5	9.5	-30.4	3447	5.2	/
CCCN(CCC)Cc1c(C(=O)NN=CCCc2ccccc2)nnn1-c1nonc1N
 : 2.3	6.1	-0.3	/	/	13.9	/
COc1ccc(C(=O)OCC(=O)c2ccccc2)cc1S(=O)(=O)N1CCOCC1
 : 5.4	5.7	8.6	-14.2	15301	1.3	-6.7
O=C(N/N=C/c1ccco1)c1cc([N+](=O)[O-])cc([N+](=O)[O-])c1
 : /	/	/	-4.1	2498	/	-0.8
CCOC(=O)c1sc(NC(=O)/C=C/c2ccc(F)cc2)nc1C
 : -0.4	-2.0	3.2	-13.4	4814	-7.4	0.6
N#Cc1ccccc1Sc1ccccc1C(=O)Nc1ccccc1
 : 2.0	-2.8	/	-35.9	2411	/	12.4
CCC(CC)c1nnc(NC(=O)CCN2C(=O)c3ccccc3C2=O)s1
 : -5.8	4.1	/	-22.5	2348	/	-7.1
CCC(C)NC(=O)C1CCC(CNS(=O)(=O)c2cccc3nsnc23)CC1 (stereo not drawn)
 : 0.7	0.6	-4.1	6.7	4417	10.4	11.3
O=C(O)CC12CC3CC(C1)CC(n1ncc(NCc4ccccc4)c(Cl)c1=O)(C3)C2
 : -0.7	-0.5	11.6	-19.3	4903	15.0	2.3
COc1ccc(C)cc1NC(=O)Cn1cnc2sc(C)c(S(=O)(=O)N3CCOCC3)c2c1=O
 : -2.2	5.6	8.1	-7.6	9444	6.5	0.5
NCCCC[C@H]1CNC(=O)C(=O)N1CC1CCCCC1
 : /	/	/	-24.4	3064	/	3.4
COc1ccc(-c2cc(C(=O)Oc3ccc([N+](=O)[O-])cc3)c3ccccc3n2)cc1
 : 6.0	-1.6	5.0	-21.6	4102	11.7	6.8
CCOCCCNC(=O)Cc1ccc(-n2c(CC)nc3cccnc32)cc1
 : -5.2	0.5	5.6	-22.1	3892	-13.6	-0.8
O=C(COC(=O)C12CC3CC(CC(Cl)(C3)C1)C2)N1CCCCC1
 : -0.5	1.9	3.8	-27.3	3800	1.1	/
O=C(c1cc(-c2ccc(Cl)cc2Cl)on1)N1CCCC1
 : 11.4	7.0	17.6	2.5	5435	24.7	-5.1
CCC(C)c1ccccc1NC(=O)c1cccc(-n2cnnn2)c1 (stereo not drawn)
 : 6.2	4.7	8.0	-13.3	2967	13.2	/
Cc1ccc(-c2cc3ccccc3nc2N2CCCC2)cc1
 : 89.4*	-2.8	/	0.1	2819	/	14.2
C=CCNC(=O)Nc1ccc(F)cc1F
 : -3.6	6.6	2.9	4.8	1907	13.3	-3.9
CC1(C)CC(=O)C2=C(C1)N(CCN1CCOCC1)C1=C(C(=O)CC(C)(C)C1)C2c1ccc(Cl)cc1
 : 2.7	4.3	1.1	-34.4	4479	4.8	-6.6
CC1CCCC(NC(=O)c2n[nH]c(=O)c3ccccc23)C1C (stereo not drawn)
 : -1.9	4.8	7.6	-42.8	3925	6.9	-9.2
N#Cc1ccc(S(=O)(=O)N2CCN(C(=O)[C@@H]3CCCN3C(=O)c3cccs3)CC2)cc1
 : 6.9	2.4	-2.1	-17.2	2800	-4.6	/
Cc1nn2c(=O)cc(CSc3ccccc3NC(=O)c3ccccc3)nc2s1
 : -4.9	-3.2	-4.2	-5.0	4963	-7.8	-0.6

# (continued)
# Below each SMILES: Sa ugtP lethal	RN4220 kill	Mtb hypoxia inh growth	PrP 5UTR inh	Bead autofluor	Mtb hypoxia inh	BJeLR lethal
CCOc1ccc2[nH]c3c(NCCOC)ncnc3c2c1
 : -1.7	-0.4	2.3	-24.1	4392	0.3	0.7
O=c1oc(C2(O)CCCCC2)cc2ccccc12
 : -5.9	3.3	5.2	-7.5	2986	1.8	/
Cc1cc(=O)oc2ccc(OCc3ccccc3)cc12
 : -0.7	12.7	5.5	1.0	3443	2.9	1.6
COc1ccccc1C(=O)Oc1cc(N)n(S(=O)(=O)c2ccc(C)cc2)n1
 : 9.8	0.2	/	-23.8	4093	/	5.1
CC1CN(C(C)CO)C(=O)c2cccc(NS(=O)(=O)c3ccccc3)c2OC1CN(C)CC1CCCCC1 (stereo not drawn)
 : 0.7	4.8	5.9	/	/	7.3	/
COC(=O)C1=C(c2ccc(F)cc2F)CC2CCC1N2C(=O)NCc1ccc2c(c1)OCO2 (stereo not drawn)
 : 7.0	5.5	-0.9	/	/	-3.0	/
CCOc1cc(/C=C/C(=O)NCCc2ccc(S(N)(=O)=O)cc2)ccc1OCC(C)C
 : 14.5	2.6	8.3	-4.9	3497	-0.8	-0.3
O=C(O)C1CCC(CNCc2ccncc2)CC1 (stereo not drawn)
 : 0.0	2.2	6.6	-9.7	3849	17.8	-3.7
CCOC(=O)C1=C(O)/C(=C/c2cc(OC)c(O)c(OC)c2)SC1=Nc1ccc(OC)cc1
 : -5.2	7.1	3.2	2.5	2413	-6.4	-5.1
CC(=O)N1CCN(c2ccc(S(=O)(=O)N3CCCCC3)cc2[N+](=O)[O-])CC1
 : 8.7	1.8	13.5	-18.3	3570	11.9	/
COc1ccc(S(=O)(=O)NC(C)C(=O)NCc2ccccn2)cc1Cl (stereo not drawn)
 : 1.6	2.4	-7.3	-6.2	5306	4.4	-2.4
COc1ccc2c(c1)c(C(=O)NN=Cc1cccc(O)c1)c(C)n2C
 : -3.2	-0.1	15.2	/	/	17.6	/
O=C(Cc1ccc(S(=O)(=O)N2CCOCC2)s1)Nc1ccccc1Br
 : -3.7	1.0	0.7	-21.6	6041	1.5	-4.1
COCCCNC(=O)Cc1ccc(S(=O)(=O)N2CCOCC2)s1
 : 5.3	4.8	3.4	-19.4	3657	10.8	/
O=C(NN=Cc1cc([N+](=O)[O-])cc([N+](=O)[O-])c1O)C(O)(c1ccccc1)c1ccccc1
 : 0.1	4.7	-1.3	/	/	10.5	/
COc1ccc(F)cc1CN1CCN(C(=O)CCC(=O)Nc2nnc(CC(C)C)s2)CC1
 : 2.8	-0.1	-9.0	-12.9	5123	0.1	61.5*
CN(C)c1cccc(C(=O)OCC(=O)c2ccc[nH]2)c1
 : 3.6	2.6	3.9	-105.9	5316	2.8	/
Cc1cccc(-c2nnc(SCC(=O)O)n2Cc2ccccc2)c1
 : /	/	/	-6.8	4193	/	2.2
CCC(=NNC(N)=O)c1ccc(OC(F)F)cc1
 : 13.2	4.9	12.6	/	/	6.7	/
COC(=O)[C@]1(C)N[C@H](CN(C)S(=O)(=O)c2ccc(F)cc2)[C@@H]2C(=O)N(C)C(=O)[C@@H]21
 : 6.0	0.3	5.2	-10.3	3580	5.3	/
CCCN1CCC(NC(=O)CCc2nnc(Cc3cc(OC)ccc3OC)o2)CC1
 : 7.4	8.2	-3.9	-13.3	4397	9.7	/
Cc1ccc2cccc(N)c2n1
 : 1.7	4.7	8.5	-33.2	4261	9.7	-2.9
COc1cccc(C(=O)NNC(=O)c2ccc3ccccc3c2)c1
 : -6.6	-2.2	2.4	0.6	3701	4.8	/
CC1CCCC(NC(=O)c2cc(S(=O)(=O)N3CCCCC3)ccc2Cl)C1C (stereo not drawn)
 : 4.8	-0.7	2.5	-12.0	/	6.8	/
Cc1cccc(NC2SC(=O)N(CC(=O)O)C2=O)c1 (stereo not drawn)
 : -1.5	-3.1	-3.4	-12.6	10986	-9.6	-1.7
COc1cccc(CN(C(=O)CN2C(=O)c3ccccc3S2(=O)=O)C(C(=O)NCC2CCCO2)c2ccco2)c1 (stereo not drawn)
 : 0.8	2.7	5.6	-27.6	3369	7.8	3.8
CCN(CC)S(=O)(=O)c1cc(C(=O)Nc2ccccn2)ccc1C
 : 5.2	3.6	-0.4	-89.9	24676*	2.8	-2.7
Cc1ccc(N(CC(=O)N2CCCCCC2)S(=O)(=O)c2ccccc2)cc1
 : 6.0	3.6	4.3	-18.1	2958	6.8	-9.3
COc1ccc(/C=N/NC(=O)CN(C)C(=O)OCc2ccccc2)cc1OC
 : /	/	/	-11.7	4026	/	-2.6
O=C(COc1cc2oc(=O)c3c(c2cc1Cl)CCCC3)NCC1CCC(C(=O)O)CC1 (stereo not drawn)
 : 1.6	1.0	9.0	7.4	6493	-2.2	-1.6

# (list continues)
# Below each SMILES: Sa ugtP lethal	RN4220 kill	Mtb hypoxia inh growth	PrP 5UTR inh	Bead autofluor	Mtb hypoxia inh	BJeLR lethal
Cc1ccc2c(c1)[nH]c1c(=O)n(Cc3ccccn3)cnc12
 : -10.5	1.6	/	-26.0	2260	/	0.0
CCc1ccc(CSc2nccn2-c2ccccc2)cc1
 : 5.3	5.8	/	1.6	3017	/	2.1
COc1ccccc1CC1C(=O)C2CCN1CC2 (stereo not drawn)
 : -3.9	-4.0	/	-36.2	2738	/	0.7
O=C(COc1ccccc1[N+](=O)[O-])Nc1cccc(Cl)c1N1CCOCC1
 : 9.8	5.0	11.3	-13.8	6465	10.3	6.0
O=C(NCC(c1ccc(F)cc1)N1CCOCC1)c1ccc(C(=O)c2ccccc2)cc1 (stereo not drawn)
 : 1.1	-0.7	3.5	-20.6	/	13.1	-1.2
CCCCC1CNCCN1CC1(c2ccccc2)CC1 (stereo not drawn)
 : -9.4	3.9	9.0	/	/	13.2	/
CCOc1ccc2nc(N3CCC(C(=O)NCCCN4CCOCC4)CC3)sc2c1
 : 5.0	2.2	7.8	-43.9	5658	15.7	11.5
CNC(=O)c1cn(-c2ccccc2)c(=O)c2ccccc12
 : 7.3	-1.2	-1.3	-14.7	6177	7.4	-14.4
COc1ccc(Cn2nnnc2CN2CCC(O)(c3ccccc3F)CC2)cc1
 : 4.7	9.3	5.0	-15.8	4276	-7.6	-2.6
CCC1CCCCN1CC(O)Cn1c2ccccc2n2c(=O)cc(C)c(C#N)c12 (stereo not drawn)
 : 8.4	5.4	4.0	-10.2	2559	11.7	-3.4
Cc1nc2nc(-c3ccc(F)cc3)cn2nc1C
 : 2.8	3.4	-1.3	26.6	3804	6.3	20.9
CC(=O)NN=Cc1cc2c(cc1[N+](=O)[O-])OCO2
 : 2.4	1.0	0.5	/	/	1.5	/
COC(=O)C(C)Oc1ccc(Oc2nc(Cl)ccc2Cl)cc1 (stereo not drawn)
 : 13.6	3.8	12.8	-10.9	4271	11.9	3.4
O=C(c1cc2ccccc2oc1=O)N(Cc1cccs1)C1CCS(=O)(=O)C1 (stereo not drawn)
 : -1.5	-4.4	/	-31.5	2197	/	-3.6
COc1cc(NS(=O)(=O)c2ccc(-c3ccc(=O)[nH]n3)o2)cc(OC)c1OC
 : 0.1	-1.5	5.7	-7.3	5795	0.8	4.8
CC(=NNC(=O)c1nnn(-c2nonc2N)c1CN1CCC(C)CC1)c1cccc(Br)c1
 : -4.9	49.5	-3.1	/	/	-12.8	/
CCOc1cccc2sc(=NC(=O)CCS(=O)(=O)c3ccccc3)n(CC)c12
 : -2.1	0.6	8.3	-9.1	6101	-1.1	-0.8
CCCOC1(NC(=O)c2ccccc2)C(C)=CC(=O)C=C1C
 : 0.7	3.5	13.2	0.4	9291	5.6	-20.0

# Quoted from the listing:
# In BJeLR lethal, CCOc1cccc2sc(=NC(=O)CCS(=O)(=O)c3ccccc3)n(CC)c12 reads -0.8
# In Sa ugtP lethal, O=C(NCC(c1ccc(F)cc1)N1CCOCC1)c1ccc(C(=O)c2ccccc2)cc1 (stereo not drawn) reads 1.1
